Vaccinia mCherry – vaccinia inhibition (mCherry reporter); Vaccinia virus mCherry reporter infection, fluorescence; about a quarter of the inactives have no number; Potency, µM (series often up to 36.5 µM), for the others: at the highest dose activity change, negative = inhibition, most hits filed as inhibitors; actives 0.63% (n = 310,000); active = well fitted inhibition curve with a large enough effect; inconclusive = small, poorly fitted or top-dose-only effect; inactive = no such curve, though single readings can be large or run the other way; tested in A549 cells; also: nearly all actives have a fitted effect of over 35% in size; inactives centre near -10
Vaccinia Venus – vaccinia inhibition (Venus reporter); actives 0.46% (n = 330,000); AID 720580; Potency, µM (highest dose often 36.5 µM), for the others: at the top dose activity change, negative = inhibition, usual class: inhibitors; Vaccinia virus Venus reporter expression, fluorescence; active means well fitted inhibition curve with a large enough effect; inconclusive means small, poorly fitted or top-dose-only effect; inactive means no such curve, though single readings can be large or run the other way; tested in A549 cells; also: nearly all actives have a fitted effect of over 30% in size; inactives centre near -10
The depositor's hits bear a star; i = inactive; ? = inconclusive; . = no result given; & = joins results of further samples; [ ] = dose if it differs, or a comment. % is scaled to controls: 0 for no effect and ±100 for the full control effect; potency is read from the fitted curve at half-maximal effect. Rows were taken by chance, and some 0.87% of all compounds hit somewhere here.

SMILES | Vaccinia mCherry | Vaccinia Venus
COc1ccc(CN(CC2CCC(C(=O)O)CC2)C(=S)Nc2ccc(C)c(Cl)c2)cc1 (centres undefined) | -9% | -22%
C=CCn1c(C)cc(C(=O)COC(=O)CNC(=O)c2ccccc2)c1C | i | -14%
CCCNC(=O)C1CCN(S(=O)(=O)c2ccc3c(c2)OCCO3)CC1 | i | -9%
O=c1[nH]c(C2CCN(S(=O)(=O)c3ccc([N+](=O)[O-])cc3)CC2)nc2c1nnn2Cc1ccccc1 | i | -7%
CC1(C)CC(=O)C2=C(C1)N=C1SCCC(=O)N1C2c1ccccc1 (centres undefined) | i | -15%
O=C(NCc1ccncc1)C1CCN(S(=O)(=O)c2ccc(F)cc2)CC1 | -1% | -5%
CN(C)N=Nc1nc2c(c(=O)n(C)c(=O)n2C)n1CC1CO1 (centres undefined) | ? | ?
COc1ccc(NS(=O)(=O)c2ccc3[nH]c4c(c3c2)CCCC4)cc1Cl | -26% | -16%
O=C(NC1CCCC1)C(NS(=O)(=O)c1ccc(Br)s1)c1ccccc1 (centres undefined) | -6% | -9%
COC(=O)C1=C(C)Nc2c(c(=O)n(C)c(=O)n2C)C1c1cccs1 (centres undefined) | . | -15%
O=C(NCCN1CCOCC1)C1CCC(CNS(=O)(=O)c2ccccc2)CC1 (centres undefined) | 1% | 8%
CC(Sc1ccccc1)C(=O)NCC1COc2ccccc2O1 (centres undefined) | i | -9%
O=C1c2ccccc2NC(c2cc(Br)c3c(c2)OCO3)N1Cc1ccco1 (centres undefined) | -23% | -6%
O=C(Nc1nnc(-c2ccc(Br)cc2)o1)c1cccc(N2C(=O)CCC2=O)c1 | -10% | -5%
CN(C)C(CNC(=S)Nc1ccc(Cl)cc1)c1cccnc1 (centres undefined) | -10% | -9%
CC1(C)Cc2c(cnn2-c2ccc(F)cc2)C(NC(=O)C2=CC(=O)CC(C)(C)O2)C1 (centres undefined) | -4% | -11%
CCOC(=O)c1c(NC(=O)C(Sc2ccccc2)c2ccccc2)sc(C(=O)N(C)C)c1C (centres undefined) | ? | ?
COc1ccc(Cl)cc1NC(=O)Cn1cc2c(n1)CCC(C)C2 (centres undefined) | -14% | -12%
CC(C)(C)NC(=O)CSc1nc(O)cc(=O)[nH]1 | -10% | -9%
CSc1cc(N2CCOCC2)nc(-c2ccccc2Cl)n1 | -17% | -8%
CCOC(=O)C1(CCCc2ccccc2)CCN(CC(O)CO)CC1 (centres undefined) | i | -6%
COc1cccc(CN(C)CCCn2cnc3c(OC)ncnc32)c1 | -13% | 0%
O=C(COC(=O)/C=C/c1ccccc1Cl)NC(=O)NC1CCCC1 | i | -15%
COc1ccc(-c2nc3nc(C)cc(C)n3c2Nc2c(C)cccc2C)cc1 | -20% | -7%
COC(=O)c1c(NC(=O)c2ccc(S(=O)(=O)N3CCCC(C)C3)cc2)sc2c1CCN(C(C)C)C2 (centres undefined) | -10% | -12%
COc1cccc(OCCSc2nc3ccccc3c(=O)[nH]2)c1 | 0% | -3%
O=C(NCc1ccccc1)C(c1ccc(C(F)(F)F)cc1)n1c(=O)c(-c2ccco2)nc2ccccc21 (centres undefined) | -30% | -4%
Cc1ccc(C)c(NC(=O)C(C)N2C(=O)c3ccccc3C2=O)c1 (centres undefined) | -1% | -8%
Cc1ccc(CN2CCc3nc(N4CCN(c5ncccn5)CC4)ncc3C2)cc1 | -25% | -25%
O=C(CSc1nnc(-c2ccco2)o1)NC(=O)C1COc2ccccc2O1 (centres undefined) | . | 0%
COc1ccc(/C=N/NC(=O)c2ccncc2)cc1CN1CCN(c2ccc(F)cc2)CC1 | -4% | -16%
Nc1c(C(=O)OCC2CCCO2)c2nc3ccccc3nc2n1C1CCCC1 (centres undefined) | -25% | -15%
COc1ccccc1NC(=O)C(Sc1ccccc1)c1ccccc1 (centres undefined) | -6% | -14%
Cc1cc(O)c(C(c2ccccc2)N2CCN(c3ccc(F)cc3)CC2)c(=O)n1Cc1ccco1 (centres undefined) | -10% | -10%
O=S(=O)(c1ccccc1)c1ccc(C(F)(F)F)cn1 | -25% | ?
Cc1ccc(Nc2ccccc2)cc1 | -12% | 1%
CC/C(=N\NC(=S)NC(C)C)c1ccc(OC(F)F)cc1 | ? | -20%
CC1CCN(C(=O)c2[nH]cnc2C(=O)N[C@@H](C)C(=O)OC(C)(C)C)CC1 | -22% | -10%
Cc1cccc(-c2nc(SCC(=O)N(C)c3ccccc3)c3c(=O)n(C)c(=O)n(C)c3n2)c1 | -3% | -6%
CCCn1c(SCC(=O)c2[nH]c(C)c(C(C)=O)c2C)n[nH]c1=O | i | 3%
CC(C)c1ccc2[nH]c(O)c(N=NC(=O)c3cccc(S(=O)(=O)N4CCCCC4)c3)c2c1 | ? | -25%
O=C(Nc1ccccc1Cl)O/N=C(/c1ccccc1)c1ccccn1 | -21% | -8%
Cc1cc(/C=C(\C#N)C(=O)Nc2ccccc2)c(C)n1-c1ccc2c(c1)OCO2 | ? | ?
CN1CCN(C2=NC(=O)/C(=C/c3ccccc3OS(=O)(=O)c3ccccc3)S2)CC1 | i | -11%
COc1ccc(/C=C2\CCn3c2nc2cc(C(=O)O)ccc2c3=O)cc1OC | 26% | 3%
CN(C)S(=O)(=O)c1cccc(-c2cn3ccccc3n2)c1 | . | -23%
COc1ccc(-n2c(O)c(C(C)=NC3CC3)c(=O)[nH]c2=O)cc1 | . | -22%
COc1cccc(C(=O)Nc2ccc(-n3nncc3-c3ccccc3)cc2)c1 | -13% | -11%
S=C(Nc1ccc2nsnc2c1)N1CCCC1 | -5% | 10%
COc1ccc(-c2cc3nc(NCCOc4ccccc4)ccn3n2)cc1 | 19% | -9%
COC(=O)c1ccc(COc2ccc3c4c(c(=O)oc3c2)CCC4)o1 | -25% | ?
COc1ccc(N(CC(=O)NCc2ccccc2C)S(=O)(=O)c2ccc(C)cc2)cc1OC | i | -1%
Cc1ccccc1OCc1ccc(-c2nc(C#N)c(N3CCN(c4cccc(Cl)c4)CC3)o2)o1 | -1% | -3%
O=C1NC2(CCCCC2)C(=O)N1c1ccccc1 | -10% | -9%
O=C(CC1(O)C(=O)Nc2ccccc21)c1cccnc1 (centres undefined) | -15% | -3%
CNC(=S)NNS(=O)(=O)c1ccc(OC)cc1OC | i | -8%
NC(=O)c1ccc(NC(=O)COC(=O)C(Cc2ccccc2)NC(=O)c2ccccc2)cc1 (centres undefined) | i | -3%
Cc1ccc(CN(Cc2ccco2)C(=O)c2cccc(C)c2)cc1 | -12% | -14%
NS(=O)(=O)c1cccc(-n2cnnn2)c1 | -12% | -9%
Cc1cc(C)n(CCc2nc(-c3ccc(F)cc3)cs2)n1 | i | -18%

Entries of single compounds, quoted from the list. Order of screens: Vaccinia mCherry | Vaccinia Venus
Shown for NC(=O)c1ccc(NC(=O)COC(=O)C(Cc2ccccc2)NC(=O)c2ccccc2)cc1 (centres undefined) = i | -3%
Shown for S=C(Nc1ccc2nsnc2c1)N1CCCC1 = -5% | 10%

Gathered by group, the entries above containing bromine (3)
SMILES | Vaccinia mCherry | Vaccinia Venus
O=C(NC1CCCC1)C(NS(=O)(=O)c1ccc(Br)s1)c1ccccc1 (centres undefined) | -6% | -9%
O=C1c2ccccc2NC(c2cc(Br)c3c(c2)OCO3)N1Cc1ccco1 (centres undefined) | -23% | -6%
O=C(Nc1nnc(-c2ccc(Br)cc2)o1)c1cccc(N2C(=O)CCC2=O)c1 | -10% | -5%

The results go on:
SMILES | Vaccinia mCherry | Vaccinia Venus
COCCNC(=O)c1c[nH]c2ccc(S(=O)(=O)N(C)c3ccc(C)c(C)c3)cc2c1=O | -15% | -8%
Cc1cc(C)c(S(=O)(=O)Nc2ccc[nH]c2=O)c(C)c1 | . | -14%
O=C(NCCCl)Nc1ccccc1NS(=O)(=O)c1cccs1 | ? | ?
C=CCn1c(SCc2nc3sc4c(c3c(=O)[nH]2)CCCC4)nc2ccccc2c1=O | -3% | -3%
O=C(CN1CCCCC1)Nc1ccccc1C(=O)NC1CC1 | -10% | -10%
COc1cccc(/C=N/NC(=O)CNC(=O)c2ccc(S(=O)(=O)N3CCOCC3)cc2)c1OC | ? | -19%
O=C(Nc1ccc(F)cc1F)N1CCN(CCc2ccccc2)CC1 | -12% | -13%
O=C(Cc1cccc2ccccc12)N/N=C/c1ccc(OC(=O)/C=C/c2ccco2)cc1 | -21% | -20%
Cc1cccn2c(=O)c3cc(C(=O)NCCN4CCOCC4)c(=N)n(CCN4CCOCC4)c3nc12 | -18% | -17%
COC(=O)[C@@H](Cc1c[nH]c2ccccc12)NC(=O)c1cc(=O)[nH]c2ccccc12 | i | 3%
Cc1ccc(Oc2ccccc2/C=N/O)cc1 | -10% | -7%
COc1cccc(NC(=O)CSc2nnc(NC(=O)NC3CCCCC3)s2)c1 | -11%[7.34 µM] | -6%[7.34 µM]
CC(C)(C)C(=O)N1CCC[C@@]1(CO)C(=O)O | -13% | -4%
CC1CC(C)CN(C(=O)c2cccc(S(=O)(=O)N3c4ccccc4CC3C)c2)C1 (centres undefined) | i | -11%
COc1ccc(C(=O)NNC2=C(C(=O)C(F)(F)F)CCC2)cc1 | -15% | -1%

Already shown: entries from further up.
SMILES | Vaccinia mCherry | Vaccinia Venus
COc1ccc(CN(CC2CCC(C(=O)O)CC2)C(=S)Nc2ccc(C)c(Cl)c2)cc1 (centres undefined) | -9% | -22%
C=CCn1c(C)cc(C(=O)COC(=O)CNC(=O)c2ccccc2)c1C | i | -14%

Other records follow:
SMILES | Vaccinia mCherry | Vaccinia Venus
CCOc1ccc2c(c1)c(=O)c(C(=O)c1ccc(CC)cc1)cn2CC(=O)Nc1ccccc1OC | -18% | -19%
Cc1ccc(NC(=O)C(Cc2ccccc2)n2cccc2)c(C)c1 (centres undefined) | -9% | -12%
CCSc1ccc2cc(OC)ccc2[n+]1CC | i | -6%
O=C1NC(=O)C2(Cc3ccccc3N3CCCC32)C(=O)N1c1ccccc1 (centres undefined) | -10% | -7%
CCOC(=O)c1c(NC(=O)COC(=O)c2ccncc2)sc(C)c1C | i | -5%
Cc1ccc(Nc2ccc([N+](=O)[O-])cn2)cc1Cl | -11% | -26%
COc1ccc(-c2nn3c(-c4ccccc4C)nnc3c3ccccc23)cc1 | ? | -28%
Cc1ccc(S(=O)(=O)N(C)c2ccc(OCC(=O)OCc3ccc(C#N)cc3)cc2)cc1 | i | -4%
CN1C(=O)N(CC(=O)Nc2ccc3c(c2)OCO3)C(=O)C12CCCCC2 | -5% | -10%
CC1CCCC(NC(=S)NC(=O)c2cncc(Br)c2)C1C (centres undefined) | -11% | -6%
N#Cc1c2n(c3c(=S)nc[nH]c13)CCCCC2 | . | -29%
O=C(CCC1CCCCC1)NCCN1C2=NC[C@@H](Cc3ccccc3)N2C[C@H]1Cc1ccc(O)cc1 | -24% | ?
COC(=O)C1=C(C)NC(C)=C(C(=O)OC)C1c1ccccc1OCc1c(C)no[n+]1[O-] | ? | ?
Cc1ccnc2nc(C(=O)Nc3nccs3)nn12 | -9% | -3%
CC1CCCCC12NC(=O)N(CC(=O)Nc1ccccc1-c1ccccc1)C2=O (centres undefined) | -6% | -11%

Quoted at random: six entries already listed, in no set order.
SMILES | Vaccinia mCherry | Vaccinia Venus
CCOc1ccc2c(c1)c(=O)c(C(=O)c1ccc(CC)cc1)cn2CC(=O)Nc1ccccc1OC | -18% | -19%
CC1CCCC(NC(=S)NC(=O)c2cncc(Br)c2)C1C (centres undefined) | -11% | -6%
COc1ccc(-c2nn3c(-c4ccccc4C)nnc3c3ccccc23)cc1 | ? | -28%
O=C1NC(=O)C2(Cc3ccccc3N3CCCC32)C(=O)N1c1ccccc1 (centres undefined) | -10% | -7%
N#Cc1c2n(c3c(=S)nc[nH]c13)CCCCC2 | . | -29%
Cc1ccnc2nc(C(=O)Nc3nccs3)nn12 | -9% | -3%

(list continues)
SMILES | Vaccinia mCherry | Vaccinia Venus
Cc1cc(C)c2c(C)c(C(=O)N3CCC(c4nc5ccccc5s4)CC3)oc2c1 | -19% | -8%
CCN1CCN(CCNC(=O)C2CCCN(Cc3nc(-c4cccc(Cl)c4)oc3C)C2)CC1 (centres undefined) | -11% | -7%
O=C(C1CCC1)N1CCc2cc(S(=O)(=O)NCc3ccccn3)ccc21 | i | -14%
CCC(=O)Nc1ccc(S(=O)(=O)NC[C@H]2O[C@@H](n3cc(C)c(=O)[nH]c3=O)C[C@@H]2O)cc1 | i | -8%
O=C(Nc1ccccc1)N(Cc1ccccc1)C1=NCCS1 | . | -7%
CCOC(=O)c1ccccc1NC(=O)CSc1nnnn1C1CCCCC1 | -25% | -5%
C[C@H](CO)N1C[C@H](C)[C@@H](CN(C)C(=O)Nc2ccccc2)Oc2ccc(NC(=O)Cc3ccccc3)cc2C1=O | i | -3%
O=C(Cc1ccccc1F)N1CCC(c2nc3c(nnn3Cc3ccc(F)cc3)c(=O)[nH]2)CC1 | -11% | -6%
Cc1ccc(N2C(=O)CSCC2=O)cc1 | . | -15%
Cc1ccc([N+](=O)[O-])cc1S(=O)(=O)Nc1ccccn1 | -1% | -10%
CCn1c(C)c(C(C)=O)c(N2CCN(C(=O)c3ccco3)CC2)nc1=S | -13% | -5%
O=C(CSc1nnc(-c2ccccc2)n1C1CCCCC1)Nc1ccc(S(=O)(=O)Nc2ccccn2)cc1 | . | -15%
COc1ccc(C2SCCN2S(=O)(=O)c2ccccc2)cc1OC (centres undefined) | . | -15%
CC(C)n1nc(C(=O)Nc2nnc(SCc3c(Cl)cccc3Cl)s2)c2ccccc2c1=O | -7% | -15%
Oc1ccc(NCc2ccccc2OCc2ccccc2)cc1 | 16%&-17% | 19%&2%

Source: PubChem BioAssay (National Center for Advancing Translational Sciences (NCATS))
